PABP polyA inh: PABP-poly(A) binding inhibition | inhibition, % at 35 µM | hit rate 1% among 290,000 | AID 2014 | PABP-poly(A) RNA binding, fluorescence polarization | P11940;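 active = 50% or more with normal probe brightness, or confirmed in later tests; inconclusive = above 50% with abnormal brightness, or retests that disagree; inactive = below 50% or failed in later tests; about a fifth of its hits are not listed in these tables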;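 also: calls also rest on retests at 20 µM and on dose response follow-up; controls were probe without protein and protein plus probe with vehicle; some compounds called inactive have numbers as strong as hits; many hits fall short of the cut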
Target sequence (P11940 whole entry, looked up): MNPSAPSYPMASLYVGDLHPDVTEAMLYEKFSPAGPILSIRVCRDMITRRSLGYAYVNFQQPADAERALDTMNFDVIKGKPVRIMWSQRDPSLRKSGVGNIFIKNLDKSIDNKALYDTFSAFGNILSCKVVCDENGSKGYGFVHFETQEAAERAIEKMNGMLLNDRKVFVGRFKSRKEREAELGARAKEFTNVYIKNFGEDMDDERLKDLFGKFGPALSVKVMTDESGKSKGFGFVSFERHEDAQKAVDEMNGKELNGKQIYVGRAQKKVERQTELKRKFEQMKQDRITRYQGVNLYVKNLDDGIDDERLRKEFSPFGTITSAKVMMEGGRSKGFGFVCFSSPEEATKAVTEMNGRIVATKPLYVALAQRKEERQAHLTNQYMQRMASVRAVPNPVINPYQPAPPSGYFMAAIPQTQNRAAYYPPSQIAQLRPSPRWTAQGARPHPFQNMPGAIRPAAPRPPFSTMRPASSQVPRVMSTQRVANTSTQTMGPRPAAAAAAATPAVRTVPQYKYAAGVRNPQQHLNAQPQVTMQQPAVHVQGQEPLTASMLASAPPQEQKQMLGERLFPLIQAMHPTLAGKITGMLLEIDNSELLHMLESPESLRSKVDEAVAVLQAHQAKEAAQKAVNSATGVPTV
Rce1 inh: yeast Ras-converting enzyme inhibition; calls only; AID 2563; Q03530; hit rate 0.27% among 290,000; yeast membranes, quenched prenylated peptide cleavage fluorescence;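 active = fall in fluorescence gain of 50% or more versus controls, with final raw signal at or below 3038400; inconclusive = same 50% fall but final raw signal above 3038400; inactive = fall in fluorescence gain under 50%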;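 also: plate controls were neutral control wells for no effect and wells lacking membranes for full effect; tested at 10 µM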
Target sequence (Q03530 whole entry, looked up): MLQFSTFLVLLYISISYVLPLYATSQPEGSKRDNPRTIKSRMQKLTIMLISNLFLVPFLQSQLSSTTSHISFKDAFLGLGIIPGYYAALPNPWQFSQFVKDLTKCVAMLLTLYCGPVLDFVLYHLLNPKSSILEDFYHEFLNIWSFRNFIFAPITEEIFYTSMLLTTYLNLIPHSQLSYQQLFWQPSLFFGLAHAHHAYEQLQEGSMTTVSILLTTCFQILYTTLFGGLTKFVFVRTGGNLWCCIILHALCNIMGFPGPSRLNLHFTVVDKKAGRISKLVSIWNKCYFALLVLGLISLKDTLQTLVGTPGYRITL
eIF4H inh: inhibitors of RNA binding by human eIF4H. Q15056. hit rate 0.94% among 290,000. AID 2012. inhibition, % at 35 µM. eIF4H fluorescence polarization binding assay;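 active = 50% or more with normal probe brightness, or confirmed in later tests; inconclusive = above 50% with abnormal brightness, or retests that disagree; inactive = below 50% or failed in later tests; about a fifth of its hits are not listed in these tables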;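 also: calls also rest on retests at 20 µM and on dose response follow-up; 0% = protein and probe with vehicle and 100% = probe without protein; strong numbers were not always called active; many hits fall short of the cut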
CSC inhib: cancer stem cell inhibition | cancer stem cell-like cells viability, luminescence | inhibition, % at 7.5 µM | hit rate 1.1% among 300,000;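 active = mean at 75% or more and at least half the replicates too; inconclusive = mean and replicates disagree; tested in HMLE shEcad cells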;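 also: 0% = median of negative and 100% = median of positive control wells; the first replicate is given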
Env fusion inh: HIV envelope-mediated fusion inhibition; HeLa-JRFL Env/CEM21 cell fusion, luciferase; inhibition, % at 12.3 µM; hit rate 1.1% among 360,000; AID 651610;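 active = mean replicate inhibition score of at least 50 and every replicate individually at or above 50; inconclusive = only one of the two criteria met; inactive = mean below 50 and not all replicates reaching 50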;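 also: 0% = plate neutral controls and 100% = maraviroc near 300 nM; one replicate is shown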
Yeast UUG start: alters start codon recognition fidelity in yeast; AID 602363; hit rate 0.13% among 350,000; activity score, % at 18.7 µM; S. cerevisiae UUG-firefly luciferase reporter, luminescence/redox ratio;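 active = replicate mean at a twofold rise or more, about +100% in these data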;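 also: firefly luciferase made from a UUG start codon reports start codon fidelity; reporter light over untreated wells divided by growth signal over untreated wells; some hits fall short of that in this replicate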
MT1-MMP act inh: inhibitors of human MT1-MMP activation; P50281; HT1080 RFP-PRO-GFP cells, GFP/RFP ratio fluorescence, overnight; percent of plate control window, DMSO zero; GFP/RFP ratio change, % at 20 µM; hit rate 0.061% among 360,000; AID 651647;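 active = GFP/RFP ratio change of at least 30% with cell ATP level not reduced by more than half and red fluorescence within 50% of control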; also: strong numbers were not always called active
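Compound: 20 µM single dose, 1% DMSO / System: HT1080 RFP-PRO-GFP cells / Controls: DMSO and RFP-L50D-GFP cell wells / Read-out basis: GFP/RFP fluorescence ratio / Schedule: overnight compound exposure at 37 °C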
eIF4H inh retest: also measured in eIF4H inh; calls as there; inhibition, %; compound at 20 µM; confirmation average;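 mean of two retest wells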
PABP polyA inh retest: further read-out of PABP polyA inh, marked with its call; inhibition, %; compound at 20 µM; confirmation repeats;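 mean of two retest wells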
MT1-MMP act inh RFP: also measured in MT1-MMP act inh; calls as there; RFP signal change, %; measured here: RFP expression control read;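 0 = vehicle wells; hits needed this value within 50% of zero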
Active calls of the source: *; i = inactive; ? = inconclusive; · = no result given. Compounds were not picked by outcome; overall some 2.9% were active at least once.

Start of the data: the first 2 compounds (preview)
SMILES	PABP polyA inh	Rce1 inh	eIF4H inh	CSC inhib	Env fusion inh	Yeast UUG start	MT1-MMP act inh	MT1-MMP act inh RFP	others
C[C@@H]1C[C@H]2[C@@H]3CCC4=CC(=O)C=C[C@]4(C)[C@@]3(F)[C@@H](O)C[C@]2(C)[C@H]1C(=O)CO	2	i	5	-5	·	-5	-5	-2
CCC/C(=N/NC(=O)c1ccc2c(c1)OCO2)c1cccs1	-2	i	0	6	2	0	1	6

The whole of this part, previewed entries included:
SMILES	PABP polyA inh	Rce1 inh	eIF4H inh	CSC inhib	Env fusion inh	Yeast UUG start	MT1-MMP act inh	MT1-MMP act inh RFP	others
C[C@@H]1C[C@H]2[C@@H]3CCC4=CC(=O)C=C[C@]4(C)[C@@]3(F)[C@@H](O)C[C@]2(C)[C@H]1C(=O)CO	2	i	5	-5	·	-5	-5	-2
CCC/C(=N/NC(=O)c1ccc2c(c1)OCO2)c1cccs1	-2	i	0	6	2	0	1	6
CC1=C(C)[N+](=O)C2CCCCC2N1[O-] (stereo unspecified)	5	i	1	6	-25	-9	-9	-2
C[C@@H]1CCC(=O)N(CC[C@H](Sc2ccccc2)c2ccccc2)CC1	0	i	-6	20	29	5	-5	-4
Cc1ccc(/C=N/n2c(C3CCCCC3)n[nH]c2=S)o1	2	i	-5	-3	15	-8	-1	2
Cc1cccc(-c2noc(CCC(=O)NC3CCCCC3)n2)c1	-2	i	-2	-14	-24	-9	3	-2
Cc1ccc(N(C)S(=O)(=O)c2cccc(C(=O)NCC(c3cccs3)N3CCOCC3)c2)cc1 (stereo unspecified)	·	i	·	23	14	-8	3	-6
O=C(COC(=O)c1ccc(S(=O)(=O)Nc2ccccc2)cc1)NCCN1C(=O)CSC1=O	12	i	-6	-5	18	-1	-4	-1
O=C(c1ccc2nc(N3CCOCC3)sc2c1)N1CCN(c2ccc(Cl)cc2)CC1	3	i	-4	1	6	·	1	-4
O=C(c1cc2cc(Cl)ccc2[nH]1)N1CCN(c2ccc(F)cc2)CC1	9	i	-7	·	-4	-4	-11	-6
Cc1ccc(Cl)cc1Nc1nc(-c2cccnc2)cs1	13	i	-10	·	-19	-11	-3	0
COc1ccc(C(=O)c2ccc(Br)cc2)c(OC)c1OC	·	·	·	·	7	-6	4	-4
COc1cc2c(cc1NC(=O)c1cccc([N+](=O)[O-])c1)oc1ccccc12	-8	i	5	7	·	·	3	6
CC(=O)NC(C(=O)c1ccccc1)C(=O)c1ccccc1	19	i	-6	-5	-13	·	-1	3
CC(C)(C)N(Cc1ccccc1)C(=O)c1ccc(Cl)cc1[N+](=O)[O-]	-8	i	1	-4	28	·	-1	-1
CCC(C)C(N)C1=NC(C(=O)N[C@@H](CC(C)C)C(=O)N[C@H](CCC(=O)O)C(=O)N[C@H](C(=O)N[C@H]2CCCCNC(=O)[C@H](CC(N)=O)NC(=O)[C@@H](CC(=O)O)NC(=O)[C@H](Cc3cnc[nH]3)NC(=O)[C@@H](Cc3ccccc3)NC(=O)[C@H]([C@@H](C)CC)NC(=O)[C@@H](CCCN)NC2=O)[C@@H](C)CC)CS1 (stereo partly specified)	·	·	·	·	8	-4	1	5
COc1ccc2nc(-c3ccccc3)[nH]c2c1	2	?	2	7	-235	-42	5	0
CN/S(=N/S(=O)(=O)c1ccccc1)c1ccc(C)cc1 (stereo unspecified)	-8	i	0	-5	·	-19	2	3
CCOC(=O)Cc1nnc(Nc2cc(C)ccc2C)c2ccccc12	-12	i	-1	-1	6	26	3	1
Cc1ccc(C(=O)Nc2cccc(C(=O)NCc3ccco3)c2)cc1	-7	i	-8	52	·	-20	-2	-4
O=C(CSc1cccc2cccnc12)N/N=C/c1ccc(F)cc1	0	i	-7	4	5	·	0	-4
Cc1nnc(N(CCC#N)CCC#N)s1	4	i	2	-16	·	-29	1	3
COc1nc(Nc2cccc(C(F)(F)F)c2)nc(OC)n1	-11	i	-6	8	i	-7	-8	-4
Nc1nc(Nc2cccc3ccccc23)nc(C2CCCC2=O)n1 (stereo unspecified)	2	i	-16	3	-132	·	·	·
O=C(NC12CC3CC(CC(C3)C1)C2)N1CCN(C(=O)C2CCCO2)CC1 (stereo unspecified)	4	i	5	-6	16	-9	2	5
COc1cc2c3nnc(-c4ccc(F)cc4)c-3cn(Cc3ccc(C)cc3)c2cc1OC	4	i	?	-1	20	-14	-51	6
Cc1ccc(S(=O)(=O)N/N=C2\C(=O)C3(C)CCC2C3(C)C)cc1 (stereo unspecified)	6	i	-6	0	16	·	1	4
O=C(NC1CCCC1)c1ccc2c(c1)N(Cc1ccc(F)cc1)CCS2	2	i	-6	26	27	-6	-3	-2
CCCc1nc2c(C)cc(-c3nc4ccccc4n3C)cc2n1Cc1ccc(-c2ccccc2C(=O)O)cc1	29	i	5	2	·	·	·	·
O=C(O)c1ccc(Sc2ccccn2)c([N+](=O)[O-])c1	-19	i	-13	1	9	-16	0	3
O=C(NCc1cccs1)C1CCCN1C(=O)Nc1ccc(Cl)cc1 (stereo unspecified)	-3	i	-4	3	·	·	·	·
Cc1nnc(N2C(=O)C(O)=C(C(=O)c3ccco3)C2c2cccc([N+](=O)[O-])c2)s1 (stereo unspecified)	7	i	1	6	2	-9	·	·
CCN(CC(=O)NCc1cccs1)C(=O)C(c1ccccc1)c1ccccc1	9	i	-9	·	3	1	0	-3
COc1cc([N+](=O)[O-])ccc1NC(=O)N1CCCCCC1	8	i	-1	-6	-15	3	2	1
CC1=C(C(=O)NC(C)c2ccccc2)C2(CCC(C)CC2)OC1=O (stereo unspecified)	14	i	6	-4	6	-15	4	-4
CCCCNC(=O)Oc1cc(CCl)on1	-4	i	-5	-4	·	·	·	·
O=C(Cc1cc(=O)[nH]c(=O)[nH]1)N1CCC(Cc2ccccc2)CC1	-2	i	14	-10	5	-9	0	0
O=C(CC1Nc2c3ccccc3nc(=S)n2C1=O)NC1CCCCC1 (stereo unspecified)	3	i	10	-9	-7	·	·	·
O=C(NCc1ccccc1)c1nc(-c2cccs2)no1	-7	i	-17	4	-9	·	6	10
O=C(CSC1=Nc2ccccc2C2=NC(CC(=O)N3CCN(c4ccccc4)CC3)C(=O)N12)NCC1CCCO1 (stereo unspecified)	-9	i	22	-25	-20	·	-9	7
NNC(=O)c1ccc(NS(=O)(=O)c2ccc(Br)cc2)cc1	3	i	-2	0	3	·	·	·
O=C(COc1ccc(/C=N/NS(=O)(=O)c2ccccc2)cc1)NCc1ccccc1	2	i	13	6	·	-16	-9	-10
O=[N+]([O-])c1ccc2oc(-c3cccc(O)c3)nc2c1	-2	i	0	23	-184	·	-5	-6
CSc1cccc(NC(=O)CSc2nnc(C)s2)c1	1	i	-11	-2	11	-18	2	2
Cc1cc(Nc2n[nH]c(N)c2C#N)ccc1F	2	i	0	5	-29	·	-1	3
CCCn1c(=O)c2sccc2n2c(CCCC(=O)NCc3ccco3)nnc12	33*	i	78*	5	3	-12	-2	-1	eIF4H inh retest=90*;PABP polyA inh retest=64*
CCn1c(SCC(=O)NC2CC2)nnc1-c1ccccc1OC	-5	i	-16	-6	6	-7	0	4
N#CCC(CNc1ncc(C(F)(F)F)cc1Cl)OC(=O)c1c(F)cccc1F (stereo unspecified)	·	i	·	-5	-13	-8	5	1
O=C1CCCC2=C1C(c1ccc(O)c(O)c1)c1c(ccc3ncccc13)N2 (stereo unspecified)	-10	i	96	13	16	·	0	1	eIF4H inh retest=-9;PABP polyA inh retest=3
Clc1ccccc1Sc1cnc2ccccc2n1	3	i	-1	8	·	-8	2	4
O=C(COC(=O)c1ncc(Cl)c(Cl)c1Cl)Nc1cccnc1Cl	·	i	·	0	14	-5	·	·
O=C(CCc1nnc(CCCc2ccccc2)o1)N1CCCCCC1	1	i	-4	8	-28	-8	-1	0
CN(CCc1ccccn1)C1CCCN(S(=O)(=O)c2ccccc2Cl)C1 (stereo unspecified)	-1	i	-10	-4	0	-7	-1	3
COc1ccc(-n2ncc3c(NCc4cccs4)ncnc32)cc1	-5	i	2	19	·	-9	2	-3
Cc1cc(Cl)c2oc(C(=O)N3CCOCC3)c(C)c2c1	·	·	·	·	i	3	-2	-1
CC1(Cc2cc(Cl)ccc2C(F)(F)F)C(=O)Nc2ccc(-c3ccc(F)c(Cl)c3)cc21 (stereo unspecified)	·	·	·	·	28	-7	-5	-4
CSc1ccc(/C=C/C(=O)OCC(=O)NC2CCCC2)cc1	·	·	·	·	-3	1	6	9
COc1ccc(C(Nc2ccccn2)c2oc(CO)cc(=O)c2O)cc1 (stereo unspecified)	-2	i	7	0	-14	·	6	12
CCc1nc2ccc(C(=O)N(CC)CCN(C)C)cn2c1N(C=O)CCC(C)C	·	·	·	·	5	-16	3	5
O=C(Nc1ccc(SC(F)F)cc1)C12CCC(CC1)C2	0	i	-12	2	-8	-13	2	0
Next section:
SMILES	PABP polyA inh	Rce1 inh	eIF4H inh	CSC inhib	Env fusion inh	Yeast UUG start	MT1-MMP act inh	MT1-MMP act inh RFP	others
CC1(C)CC2CC(C)(CN2C(=O)CCCN2C(=O)c3ccccc3C2=O)C1 (stereo unspecified)	3	i	15	-1	·	5	2	4
CC(OC(=O)c1n[nH]c2ccccc12)C(=O)Nc1ccccc1[N+](=O)[O-] (stereo unspecified)	·	·	·	-5	-8	-16	1	-9
O=C(O)/C=C\C(=O)N1CCc2ccccc21	-2	i	18	0	17	·	1	0
NS(=O)(=O)c1ccc(CCNC(=O)/C=C/c2ccc([N+](=O)[O-])cc2)cc1	-17	i	4	2	-3	·	-1	-3
CCN(CCCNC(=O)CSc1cc(=O)n(C)c2cc(Cl)ccc12)Cc1ccccc1	4	i	1	25	0	·	0	0
O=C(Nc1ccn(-c2ccccc2)n1)c1ccc(Cl)cc1	14	i	0	3	2	·	-12	-21
Cc1ccc(C(=O)NCc2ccncc2)cc1S(=O)(=O)Nc1cccc(C)c1C	-1	i	-11	7	-11	4	-5	-6
CN=C1CC(SC)=C1c1ccc(C)cc1	4	i	-3	1	·	-19	-6	-2
CCCCC(=O)c1ccc(O)cc1O	·	i	·	-9	·	-2	-3	-2
Cc1cc(C)cc(OCc2nnc(SCC(=O)Nc3ccccc3)o2)c1	2	i	-6	-7	-61	-5	3	10
N#CC1=C(N)OC2=C(C(=O)CCC2)C1C1C=CCCC1 (stereo unspecified)	-9	i	-11	-2	·	·	1	5
S=C(NCCCN1CCOCC1)Nc1ccc(Cl)cc1Cl	-3	i	0	1	-13	·	5	6
Cc1nc(NCCc2ccc(S(N)(=O)=O)cc2)c2c(C)c(C)sc2n1	-4	i	-5	18	46	-4	-11	-16
O=C(N/N=C/c1ccc(N2CCOCC2)cc1)C1CC1	-10	i	-6	·	-15	-49	2	1
COc1ccc(N2C(=O)C3C4C=CC(C5CC45)C3C2=O)c([N+](=O)[O-])c1 (stereo unspecified)	-1	i	2	·	·	-7	4	4
CCc1cc2c(=O)c(-c3cnn(-c4ccccc4)c3)coc2c(CN2CCOCC2)c1O	2	i	0	21	44	7	-6	-8
Cc1nc(-c2cccc(S(=O)(=O)N3CCCC(C)C3)c2)cs1 (stereo unspecified)	0	i	10	-5	·	·	1	-2
CC1(C)CC(=O)C=C(Nc2cc(-c3ccccc3)[nH]n2)C1	12	i	-4	59	25	-6	-4	-4
Cc1ccccc1C(=O)NC1CCN(Cc2nnnn2Cc2ccc(F)cc2)CC1	-8	i	-3	-8	-49	-12	1	0

High-throughput results (PubChem)
